Screening data as filed in PubChem.
D2 agonist = Beta-Arrestin HTS for Positive Allosteric Modulators of the Human D2 Dopamine Receptor: Agonists; D(2) dopamine receptor (Homo sapiens), P14416; DiscoveRx PathHunter D2 beta-arrestin, luminescence, 90 min; 100% = 57 uM dopamine signal; actives 0.084% (n = 360,000); activation, % (concentration not given with the values); in the data active = activation above about 40%; inconclusive = about 15% to 40%; inactive = below about 15%; further: compound concentration not given in the record; the text of the record calls up to 30% inactive
Target sequence (P14416 whole entry, looked up): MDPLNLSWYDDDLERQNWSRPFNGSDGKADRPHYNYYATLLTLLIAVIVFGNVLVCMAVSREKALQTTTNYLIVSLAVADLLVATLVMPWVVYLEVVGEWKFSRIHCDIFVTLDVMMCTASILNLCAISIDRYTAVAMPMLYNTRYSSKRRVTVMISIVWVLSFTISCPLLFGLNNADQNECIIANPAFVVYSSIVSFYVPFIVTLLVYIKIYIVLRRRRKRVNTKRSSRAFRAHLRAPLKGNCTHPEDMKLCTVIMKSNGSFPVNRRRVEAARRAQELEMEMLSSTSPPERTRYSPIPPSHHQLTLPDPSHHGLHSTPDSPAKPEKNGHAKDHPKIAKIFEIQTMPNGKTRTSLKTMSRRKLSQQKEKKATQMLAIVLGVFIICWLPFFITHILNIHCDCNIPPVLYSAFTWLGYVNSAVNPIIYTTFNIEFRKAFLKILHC
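Agonist mode: compounds alone added to overnight-plated D2 PathHunter cells for 90 min at 37 C, with 57 uM final dopamine (EC100) defining full response. Beta-arrestin recruitment detected by chemiluminescent reagent, read after 1 h at ambient temperature.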
D2 PAM = Beta-Arrestin HTS for Positive Allosteric Modulators of the Human D2 Dopamine Receptor: Potentiators | actives 0.23% (n = 360,000) | potentiation, % (no concentration beside the values) | DiscoveRx D2 beta-arrestin cells, luminescence, 90 min; 100% = 57 uM dopamine signal; active = potentiation of 50% or more; inconclusive = 30% to 50%; inactive = 30% or less;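 further: compound concentration not given in the record; tested on top of an EC20 dose of dopamine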
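PathHunter beta-arrestin assay in DiscoveRx D2 cells. Compounds were added with an EC20 of dopamine (50 nM final) for 90 min at 37 deg C. Luminescence was read 1 h after detection reagent, with 57 uM dopamine as the EC100 control.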
Six1-Eya2 inh = qHTS Assay for Inhibitors of the Six1/Eya2 Interaction; Homeobox protein SIX1 (Homo sapiens) + Protein phosphatase EYA2 (Homo sapiens), …; AlphaScreen GST-Six1/His-Eya2 binding, biochemical; stronger effect = lower value; control for the full effect not named in the record; activity change, % (test concentration not listed); actives 0.56% (n = 360,000); in the data active = activity change below about -65%; inconclusive = about -30% to -65%; inactive = above about -30%; further: on the % scale 0 is the no-effect control and ±100 the full control effect; compound concentration not given in the record
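Six1/Eya2 binding was read as AlphaScreen signal after compounds were pinned into GST-Six1 plus His-tagged Eya2 (5X stock 250/500 nM) in pH 8.0 Tris/NaCl/TCEP buffer, beads added, then incubated 1 h, 37 C, dark.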
TRPML1 inh = qHTS for Inhibitors of the Human Mucolipin Transient Receptor Potential 1 (TRPML1); actives 0.02% (n = 390,000); Mucolipin-1 (Homo sapiens), Q9GZU1; TRPML1-inducible cells, Ca2+ dye fluorescence, FDSS; stronger effect = lower value; inhibition of EC80 agonist-evoked calcium signal; AID 624415, 2012; activity change, negative = inhibition, % (no concentration beside the values); in the data active means activity change below about -50%; inconclusive means about -30% to -50%; inactive means above about -30%;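 further: stimulus is agonist 54-4 at its EC80 concentration; on the % scale 0 is the no-effect control and ±100 the full control effect; compound concentration not given in the record; the text of the record puts the active cut at -80%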
Target sequence (Q9GZU1 whole entry, looked up): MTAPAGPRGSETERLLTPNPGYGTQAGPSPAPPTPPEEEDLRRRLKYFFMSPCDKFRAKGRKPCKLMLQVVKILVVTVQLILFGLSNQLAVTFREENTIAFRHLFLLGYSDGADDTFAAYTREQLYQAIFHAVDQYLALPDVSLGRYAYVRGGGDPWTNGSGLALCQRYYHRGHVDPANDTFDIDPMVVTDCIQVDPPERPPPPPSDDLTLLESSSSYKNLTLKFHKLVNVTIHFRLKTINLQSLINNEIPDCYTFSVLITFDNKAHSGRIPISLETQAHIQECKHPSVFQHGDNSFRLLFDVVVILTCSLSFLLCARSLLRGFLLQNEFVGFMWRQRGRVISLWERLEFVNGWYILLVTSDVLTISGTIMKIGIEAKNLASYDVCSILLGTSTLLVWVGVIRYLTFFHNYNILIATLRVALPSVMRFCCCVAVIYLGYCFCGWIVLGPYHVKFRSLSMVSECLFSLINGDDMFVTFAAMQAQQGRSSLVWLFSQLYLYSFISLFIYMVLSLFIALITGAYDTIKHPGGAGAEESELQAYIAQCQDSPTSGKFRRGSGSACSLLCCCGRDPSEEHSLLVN
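Calcium fluorescence in TRPML1-DL cells induced overnight with Tet: a 110 s read after compound pin addition, then a 110 s antagonist read after challenge with 54-4 at 4 uM final (EC80).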
TRPML1 agonist = qHTS for Agonists of the Human Mucolipin Transient Receptor Potential 1 (TRPML1). Mucolipin-1 (Homo sapiens), Q9GZU1. TRPML1-expressing cells, Ca2+ dye fluorescence, FDSS; host cell line not named in the record; reference of the full effect not given here. activation, % (concentration not given with the values). actives 0.12% (n = 410,000). AID 624414, 2012; in the data active = activation above about 50%; inconclusive = about 30% to 50%; inactive = below about 30%; further: 0% is about no effect; the text of the record puts the active cut at 80%
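Kinetic FDSS Ca2+ read in Tet-induced TRPML1-DL cells (ABD Ca8 dye plus quencher, 45-90 min RT loading): baseline, then compound, then 110 s agonist window; EC80 agonist 54-4 at 4uM final added afterwards for a 110 s antagonist window.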
PINK1 modulator = A Quantitative High throughput Screen to Identify Chemical Modulators of PINK1 Expression. PINK1 immunofluorescence, high-content cytometry, 24 h. Potency, µM (top dose mostly 76.6 µM), inactives show at the top dose activation (PINK1 increase), usual class: activators. actives 0.2% (n = 410,000). AID 624263, 2012; active = well fitted activation curve with a large enough effect; inconclusive = small, poorly fitted or top-dose-only effect; inactive = flat fitted curve, though single readings scatter; cell line not stated here;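 further: potency means the concentration at half of the fitted maximal effect; % of control where 0% means no effect; nearly all actives have a fitted effect of over 65% in size; a mitochondrial uncoupler was the plate control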
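Stable cell line treated 24 h with compounds at 5 concentrations (CCCP controls), then fixed and immunostained for PINK1 plus nuclear and cell stains; PINK1 immunofluorescence quantified by laser-scanning microplate cytometry.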
* = called active by the depositor; ? = inconclusive; · = not tested or not shown; [ ] = another dose, or the depositor's remark.

Under each structure: D2 agonist, D2 PAM, Six1-Eya2 inh, TRPML1 inh, TRPML1 agonist, PINK1 modulator
O=C(COc1ccc2c3c(c(=O)oc2c1)CCC3)NCc1ccncc1
    -0.5, -1, -1, -16, -0.2, 0.1%
CC(C)(C)N(Cc1ccccc1)C(=O)COC(=O)/C=C/c1ccc2c(c1)OCO2
    1.6, -2, 5, 4, 1.7, 1.0%
CC(NC(=O)Nc1ccc(O)cc1)(C(F)(F)F)C(F)(F)F
    13, 118*, 10, -7, -1.0, 1.9%
Cc1nn(CC(=O)Nc2ccc(Br)cc2F)c(=O)c2cccn12
    -3.7, 2, -1, 6, -0.4, 0.5%
CC(=O)Nc1cc2c3ccccc3ccc2c2ccccc12
    0.8, -5, 6, 6, -0.3, 29%
CCOC(=O)CNC(=O)N1CCCN(S(=O)(=O)c2ccc3c(ccn3CC)c2)CC1
    ·, ·, ·, 9, 2.1, -0.8%
CCC(Cc1ccccc1)NC(=O)CCS(=O)(=O)c1cc2c(cc1Cl)NC(=O)CO2 (stereo unspecified)
    ·, ·, ·, 13, 0.7, 0.5%
COc1ccc(C(=O)NCc2nnc(SCC(=O)N3CCc4ccccc43)n2C2CCCCC2)cc1
    -0.1, -6, 1, 0, -0.4, 12%
CCC(=O)N1CCc2cc(S(=O)(=O)N(CC)c3cccc(C)c3)ccc21
    -3.8, -10, 4, -7, -0.5, 2.1%
Cc1ccc(C(=O)CC(Nc2ccc(F)cc2)c2ccccc2)cc1 (stereo unspecified)
    -6.4, -11, 0, 10, -0.1, 18%

Going on with the list.
Under each structure: D2 agonist, D2 PAM, Six1-Eya2 inh, TRPML1 inh, TRPML1 agonist, PINK1 modulator
COc1ccccc1NC(=S)N1CCC(C(=O)c2ccc(F)cc2)CC1
    -2.9, -14, -4, 12, 1.8, 1.3%
COc1ccc(/C=C/C(=O)c2cc(F)ccc2OC(=O)c2ccccc2C)cc1OC
    2.8, 13, 1, 0, 0.4, -0.8%
CC(Oc1cc(F)ccc1[N+](=O)[O-])C(=O)N(C)CC(=O)Nc1ccccc1C(F)(F)F (stereo unspecified)
    1.8, -3, -9, -10, -0.4, 0.5%
NC(=O)CSc1ncc(-c2ccc([N+](=O)[O-])cc2)[nH]1
    6.5, -7, -17, 8, 1.0, -2.1%
COC(=O)c1ccc(NC(=O)NC(C)c2c(-n3cccc3)sc(C)c2C)cc1 (stereo unspecified)
    ·, ·, ·, -2, 0.8, 5.0%
C[C@@H]1CN([C@@H](C)CO)C(=O)c2cc(C#Cc3cccc(F)c3)cnc2O[C@H]1CN(C)C(=O)C1CCCCC1
    0.5, ·, -1, ·, ·, 0.9%
Fc1ccc(NC(=S)Nc2cccc3ccccc23)cc1F
    -5.7, -15, -9, 49, -0.8, 21%
Cc1cc(C)c(NC(=O)CNC(=O)c2ccc3ncsc3c2)c(C)c1
    4.6, -7, -5, 1, -0.7, 4.3%
c1ccc(CCNc2nc(-c3ccccn3)nc3ccccc23)cc1
    -4.7, -19, ?, 31, 1.9, 40µM*
Cc1ccc(NC(=O)c2ncn(CC(=O)NCc3nc4ccccc4[nH]3)n2)cc1C
    -0.3, -2, 2, 5, -1.1, 10%

Next section
Under each structure: D2 agonist, D2 PAM, Six1-Eya2 inh, TRPML1 inh, TRPML1 agonist, PINK1 modulator
COc1ccc(-c2csc3nc(C(C)C)oc(=O)c23)cc1OC
    0.9, -3, 5, -5, -0.6, -0.6%
O=C(c1ccc(Cl)cc1)n1c(NCc2ccccc2)n[nH]c1=S
    1.1, -2, -4, 10, -0.1, 1.5%
C=C(C)CSc1nnc(-c2cc(OC)c(OC)c(OC)c2)n1N
    -4.9, -8, 3, 0, -0.3, -0.5%
CCn1c(SCC(=O)Nc2nc(-c3ccc(C)cc3)cs2)nnc1-c1ccccc1O
    1.7, 29, -15, ?, 1.7, 18%
Cc1cc(OCc2ccc(F)cc2)nc(-c2ccccc2O)n1
    -3.6, -14, 48, -1, -0.1, 10%[38.3 µM]
CC(=O)N1c2ccccc2CCc2ccc(N)cc21
    -1.8, -11, 1, -4, 0.3, 0.1%
COc1ccc(C2(C)NC(=O)N(CC(=O)Nc3ccc4[nH]c(=O)[nH]c4c3)C2=O)cc1 (stereo unspecified)
    -0.3, -8, -16, -3, -0.4, 2.9%
O=C(CSc1nnc(CN2CCCCCC2=O)n1-c1ccccn1)NCC(F)(F)F
    2.0, 0, 5, -9, 0.6, ?
COc1cccc(N2C(=O)C3NN=C(C(=O)CN4C(=O)c5ccccc5C4=O)C3C2=O)c1 (stereo unspecified)
    1.8, -6, 1, 32, 1.1, -0.3%
Cc1ccccc1S(=O)(=O)NC(=O)C1(C)CCN1C(=O)c1ccccc1CCc1ccccc1 (stereo unspecified)
    5.9, -2, 10, ·, -0.4, -1.0%

Sorted by heavy-atom count (high to low): three of the compounds above.
Under each structure: D2 agonist, D2 PAM, Six1-Eya2 inh, TRPML1 inh, TRPML1 agonist, PINK1 modulator
Cc1ccccc1S(=O)(=O)NC(=O)C1(C)CCN1C(=O)c1ccccc1CCc1ccccc1 (stereo unspecified)
    5.9, -2, 10, ·, -0.4, -1.0%
COc1cccc(N2C(=O)C3NN=C(C(=O)CN4C(=O)c5ccccc5C4=O)C3C2=O)c1 (stereo unspecified)
    1.8, -6, 1, 32, 1.1, -0.3%
COc1ccc(C2(C)NC(=O)N(CC(=O)Nc3ccc4[nH]c(=O)[nH]c4c3)C2=O)cc1 (stereo unspecified)
    -0.3, -8, -16, -3, -0.4, 2.9%

Compound profiles, from the list above:
CC(Oc1cc(F)ccc1[N+](=O)[O-])C(=O)N(C)CC(=O)Nc1ccccc1C(F)(F)F (stereo unspecified) in the list: D2 agonist: 1.8; D2 PAM: -3; Six1-Eya2 inh: -9; TRPML1 inh: -10; TRPML1 agonist: -0.4; PINK1 modulator: 0.5%
O=C(COc1ccc2c3c(c(=O)oc2c1)CCC3)NCc1ccncc1 in the list: D2 agonist: -0.5; D2 PAM: -1; Six1-Eya2 inh: -1; TRPML1 inh: -16; TRPML1 agonist: -0.2; PINK1 modulator: 0.1%

More entries follow.
Under each structure: D2 agonist, D2 PAM, Six1-Eya2 inh, TRPML1 inh, TRPML1 agonist, PINK1 modulator
c1ccc(-c2nc(NCc3ccco3)c3ccccc3n2)cc1
    -2.1, -11, -5, -5, -0.8, 7.4%
CC(C)CC(C)c1cc(N)nc2nc3ccccc3n12 (stereo unspecified)
    -3.5, -13, -3, 4, 0.4, -1.3%
Cc1ccc2nc3c(cc(C(=O)NCC4CCCO4)c(=N)n3C(C)C)c(=O)n2c1 (stereo unspecified)
    ·, ·, ·, 1, 0.4, 3.8%
Cn1c(SCC(=O)N2CCc3ccccc3C2)nnc1-c1cccs1
    -2.1, -19, -1, 32, 2.5, -1.5%
CCOc1ccccc1NC(=S)N1CCN(c2cccc(OC)c2)CC1
    0.8, -1, -10, -1, 1.1, 5.2%
CC1=[N+](C)N(c2ccccc2)C(=O)C1N=Cc1ccccc1Cl (stereo unspecified)
    -2.4, -4, 1, -8, -0.2, 2.7%
Cc1occc1-c1nnc(SCC(=O)NC(=O)NC(C)C)n1N
    -1.4, 5, 7, -4, 0.0, 7.7%
C=CCn1c(COc2ccc(CC)cc2)nnc1SCC(=O)NC1CCS(=O)(=O)C1 (stereo unspecified)
    2.4, -16, 10, 0, -0.7, -0.4%
Cc1ccc(-c2cc(=O)[nH]c(NCc3ccccc3)n2)cc1
    -2.8, -2, 6, 16, 1.8, 1.5%
O=C(N/N=C/c1ccc([N+](=O)[O-])o1)c1cc(-c2ccc(-c3ccccc3)cc2)nc2ccccc12
    4.8, -2, -28, -18, 0.6, 18%

(next part)
| SMILES | D2 agonist | D2 PAM | Six1-Eya2 inh | TRPML1 inh | TRPML1 agonist | PINK1 modulator |
| --- | --- | --- | --- | --- | --- | --- |
| CCCCC[C@@H](C)N1C[C@H](COCc2ccccc2)Oc2cc(N3CC[C@@H](N(C)C)C3)ccc2S1(=O)=O | · | · | -16 | · | -0.1 | -1.4% |
| O=C(NCC1CCCO1)/C(=C\c1cccc([N+](=O)[O-])c1)NC(=O)c1ccccc1 (stereo unspecified) | -2.5 | -3 | -1 | 0 | 0.0 | 0.7% |
| CCOc1ccc(/C=N/O)cc1 | -3.2 | -7 | 5 | -11 | 0.4 | 1.4% |
| Cc1cccc(NC(=O)c2c(C)cc(C)nc2SCC(=O)c2ccccc2)c1 | · | · | · | 16 | 1.9 | -1.0% |
| O=C(CN1CCN(C(=O)N2CCOCC2)CC1)Nc1ccc(Br)cc1 | -1.8 | -9 | 4 | -14 | 2.0 | -0.9% |
| COC(=O)C1=C(COc2ccccc2)NC(=O)NC1c1ccc2ccccc2c1 (stereo unspecified) | -1.9 | -1 | -1 | 35 | 0.8 | 7.0% |
| CCc1ccc(NC(=S)Nc2cc(OC)c(NC(=O)C(C)C)cc2OC)cc1 | 5.6 | -3 | -6 | -10 | 0.5 | 1.8% |
| CCN(CC)C(=O)C1=C(C)N(CCCOC)C(=O)C(CC(=O)NC2CCCC2)C1 (stereo unspecified) | -6.1 | 0 | 0 | 10 | -0.5 | 0.8% |
| Cc1cc(CSc2ccccc2)ccc1NC(=O)COc1ccccc1 | 1.7 | -11 | 15 | 3 | 3.0 | -0.4% |
| CC(=O)Nc1ccc(C(=O)CSc2cc(C)c3cccc(C)c3n2)cc1 | -3.1 | -5 | 6 | -7 | 0.2 | 13% |
| CC1=CC2=C(OC1N(C)C)c1cccc3cccc(c13)C2=O (stereo unspecified) | -9.2 | -39 | -7 | -8 | 0.9 | 0.1% |
| COc1ccccc1OCC(=O)Nc1cc(Cl)ccc1Oc1ccccc1 | -4.1 | -5 | 14 | 28 | 0.4 | 1.2% |
| FC(F)(F)c1cccc(CON=C2CCN(c3ncc(C(F)(F)F)cc3Cl)CC2)c1 | 1.5 | -4 | 18 | -11 | 1.9 | 12%[38.3 µM] |
| CCN(CC)c1ccc(C=C(c2nnnn2-c2ccccc2)c2nnnn2-c2ccccc2)cc1 | -2.9 | -8 | 2 | -4 | 13 | 0.2% |
| CC1(C)Cc2c(sc3c2c(=O)n(-c2cccc(Cl)c2)c(=O)n3CC(N)=O)CO1 | -3.8 | 0 | 2 | -4 | 0.1 | 0.9% |
| COc1ccc(C(=O)NNC(=O)Cc2nc3nc(C)cc(C)n3n2)cc1 | -4.6 | -11 | 2 | 38 | 0.8 | 5.4% |
